From PubChem
BasE inh = BasE siderophore enzyme inhibitors, primary screen, biochemical, Acinetobacter baumannii ATCC 17978, fluorescence polarization; purified BasE, fluorescence polarization binding displacement; inhibition, % (concentration not given with the values); 84,000 tested, 0.1% active;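 active = both replicates above 25% with normal brightness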;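 also: 0% = negative plate control signal and 100% = positive plate control signal; stock transfer was 100 nL into about 30 µL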
KSHV LANA nucl = inhibitors of KSHV LANA-nucleosome binding, primary screen, biochemical, fluorescence polarization, FITC-LANA1-23, chicken nucleosomes. FITC-LANA1-23 / chicken nucleosome fluorescence polarization; stronger effect = lower value. z-score (no concentration beside the values). 51,000 tested, 0.3% active. AID 720717, 2013;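 active = both repeat wells score below -2 in polarization z-score versus plate sample wells, excluding overly bright wells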;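 also: 100 nL library stock added to about 30 µL; numbers are from one replicate; some results filed as inactive read as strong as hits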
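test system = FITC-LANA peptide and chicken nucleosomes | amount = 240 nM purified chicken nucleosomes (480 nM peptide binding sites), final | reagent = 50 nM FITC-LANA1-23 probe | medium = TEN-BT buffer, pH 7.5 | doses = single compound addition by pin transfer, 100 nL per well | timing = 10–45 min, room temperature | detection = fluorescence polarization | repeats = duplicate plates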
* marks the source's active call; other numbers are inactive results; . = not tested or not shown. A portion of the library; the hit share may differ from the screen's.

smiles	BasE inh	KSHV LANA nucl
Nn1c(SCC(=O)N2CCc3ccccc32)nncc1=O	0.6	0.265
CCOC(=O)CCc1ccc(OCc2c(C)c(C)c(C)c(C)c2C)cc1	1.9	.
O=c1c2ccccc2nc2n1CCO2	2.8	-0.0715
Cc1nn(-c2ccccc2)c2sc(C(=O)OCC(=O)Nc3ccccc3)cc12	1.6	.
COCCOc1ccc(C(F)(F)F)cc1NCC(=O)NCc1ccc2c(c1)OCO2	1.5	.
Cc1ccc(C(=O)CSc2nc(C(F)(F)F)cc(=O)n2-c2ccccc2)cc1	.	-0.0485
CCS(=O)(=O)c1ccc(O)c(NC(=O)COc2ccc(Cl)c(C)c2)c1	-0.8	0.012
CC(=O)Nc1ccc(C(=O)N2CC(C)OC(C)C2)cc1 (stereo not given)	1.1	0.756

(list continues)
smiles	BasE inh	KSHV LANA nucl
Cc1ccc2oc(-c3cc(N=C/C=C/c4ccc5c(c4)OCO5)ccc3O)nc2c1	2.7	-0.046
CC(C)(O)C#Cc1ccccn1	0.5	0.0525
O=C(c1ccccc1)N1CCCSc2ccccc21	3.5	-1.58
Cc1noc(C)c1COc1ccc(C(=O)OCC(N)=O)cc1	0.5	.
CCC12CN3CC(CC)(CN(C1)C3c1ccccc1)C2O (stereo not given)	-2.0	2.55
CCC(C)NC(=O)CN1C(=O)C2C3C=CC(C3)C2C1=O (stereo not given)	3.0	-0.731
O=c1[nH]c(=O)n(CCO)c2nonc12	-3.1	-0.15
O=C(NN1C(=O)c2ccccc2C1=O)C(O)c1ccccc1 (stereo not given)	1.1	-0.436

More records follow.
smiles	BasE inh	KSHV LANA nucl
Cc1cccc(N(Cc2ccccc2)C(=O)COc2ccc(-c3nnco3)cc2)c1	-1.0	.
FC(F)(F)c1cccc(OCc2ccc(-c3ncns3)cc2)c1	-0.2	.
CCOC(=O)Cc1csc(-c2ccccc2F)n1	4.8	-0.008
COC(=O)/C=C1\Nc2ccccc2SC1=O	-1.6	-0.0055
C=CCOC(=O)C1CC=CCC1C(=O)Oc1ccc(F)cc1F (stereo not given)	2.3	-0.181
Nc1nc(N2CCOCC2)ncc1S(=O)(=O)c1ccc(C(F)(F)F)cn1	1.1	-0.192
CCC1CCCCN1S(=O)(=O)c1ccc2c(c1)CCN2C(C)=O (stereo not given)	0.3	0.17
CCC(=O)c1ccc(OCC(=O)NC2CCCC2)cc1	0.1	.

(cont.)
smiles	BasE inh	KSHV LANA nucl
CCOC(=O)N1CCC(=C(C#N)C(=O)Nc2cc(OC)ccc2OC)CC1	4.2	.
N/N=C1\CCCc2c1[nH]c1ccc(F)cc21	1.5	0.0425
Cc1ccsc1/C=N/n1cnc2sc(C)c(C)c2c1=O	-1.5	.
CN(C)C1c2cccc3cccc(c23)C1NS(C)(=O)=O (stereo not given)	-1.2	0.934
Cc1ccc(C(CCN)c2ccco2)cc1 (stereo not given)	-6.7	2.07
Cc1cc(S(=O)(=O)N2CCOCC2)ccc1OCC(=O)N1CCOCC1	1.2	-0.506
CCS(=O)(=O)N1CCC(C(=O)N2CCN(c3ccccc3)CC2)CC1	2.1	-1.45
COc1cccc2cc(C(=O)c3ccccc3)oc12	.	-0.556

Continuation:
smiles	BasE inh	KSHV LANA nucl
CCCOc1ccc(-c2nc(SCC(N)=O)[nH]c(=O)c2C#N)cc1OC	-2.1	-1.2
CCOC(=O)C1C(=O)C=C(c2ccc(NS(C)(=O)=O)cc2)CC1c1ccco1 (stereo not given)	-2.8	-0.009
Cc1oc2c(C)c3oc(=O)c4c(c3cc2c1-c1ccccc1)CCCC4	2.6	.
O=C(Nc1cccc(-c2nnco2)c1)c1ccc(C(F)(F)F)cc1	2.9	.
CNC(=S)NC(=O)c1ccccc1	0.9	.
Cc1ccc(Sc2cnc(N)nc2C)cc1	.	0.244
Nc1nc2c(nc(SCc3ccccc3Br)n2C2OC(CO)C(O)C2O)c(=O)[nH]1 (stereo not given)	-0.7	0.559
COC(=O)Cc1nc(-c2ccc(F)cc2)sc1C	1.1	.

The list goes on.
smiles	BasE inh	KSHV LANA nucl
CCCC(NC(=O)c1ccccc1)c1nc2ccccc2n1Cc1ccc(C(=O)OC)o1 (stereo not given)	3.1	.
c1ccc(N2CCN(C3CCc4ccccc4C3)CC2)cc1 (stereo not given)	1.7	-1.49
S=C1Nc2ccccc2CS1	-0.2	.
COC(=O)c1cc(COC(=O)c2ccccc2Sc2ccccc2C#N)oc1C	-4.5	.
CC(=O)N(C)C1=C(O)c2ccccc2C(=O)C1=O	1.0	0.839
Cc1ccc(CNC(=O)NCc2cccc(CNC(=O)NCc3ccc(C)n3C)c2)n1C	-1.2	.
O=C(NC1CCCC1)C1CCC(Cn2c(=O)c3ccccc3n(Cc3cc(=O)n4ccccc4n3)c2=O)CC1 (stereo not given)	-0.1	0.14
Cc1cn2c(nc1=O)O[C@H]1C[C@H]2O[C@@H]1COC(=O)c1ccccc1	-1.1	1.05

Carrying on.
smiles	BasE inh	KSHV LANA nucl
Cc1coc(NC(=O)CSc2nc(-c3ccc(Cl)cc3)cc(C(F)(F)F)c2C#N)n1	1.8	0.173
CCN=C(Nc1ccc(Cl)cc1)c1cccnc1	.	0.049
O=C(COc1ccccc1F)Nc1ncnc2nc[nH]c12	0.2	.
O=C1c2ccccc2CN1CCSC(=S)N1CCCC1	1.8	0.069
CC(=O)c1c(CC(=O)O)[nH]n(-c2nc3ccccc3s2)c1=O	15.3	-2.01
O=C(O)CCC(=O)Nc1ccccc1C(=O)NC1CC1	0.1	.
CCOc1cc(S(=O)(=O)NCCc2ccc(OC)c(OC)c2)c(OCC)cc1-n1cnnn1	-0.1	2.36
C=CCN(c1ccccc1)c1nc(C(=O)OCC)nc2ccccc12	2.0	-0.202

(list continues)
smiles	BasE inh	KSHV LANA nucl
CC(CN=CC1=C(O)CC(C)(C)CC1=O)N=CC1=C(O)CC(C)(C)CC1=O (stereo not given)	1.5	0.173
CN(C)c1ccc(/C=N/N2C(=O)c3ccccc3C2=O)cc1	-0.7	0.017
Cc1ccnc(SCc2cc(=O)c(OC(=O)c3ccco3)co2)n1	-1.0	1.37
O=C(NC(=S)Nc1cccc2c(O)cccc12)C1CC1	2.8	.
COc1cc(N)c(Cc2nccc3cc(OC)c(OC)cc23)cc1OC	2.1	-0.0335
O=C(Cn1c2c(c(=O)n3ncnc13)CCC2)N/N=C/c1cccnc1	1.9	0.0485
Cc1cc2ncn(C(=O)N3CCCCC3)c2cc1C	-0.4	0.0565
Cc1ccc(C(=O)COC(=O)c2ccc(-n3cccn3)cc2)s1	2.1	.

Compound profiles, as listed above.
Record of Cc1ccc(C(=O)COC(=O)c2ccc(-n3cccn3)cc2)s1 → BasE inh = 2.1; KSHV LANA nucl = .
Record of O=C(Cn1c2c(c(=O)n3ncnc13)CCC2)N/N=C/c1cccnc1 → BasE inh = 1.9; KSHV LANA nucl = 0.0485

Other structures
smiles	BasE inh	KSHV LANA nucl
CCCN(Cc1nnc(-c2ccco2)o1)C(=O)CSc1nnc(-c2ccc(Cl)cc2)o1	-4.4	.
COc1ccccc1C(=O)N=C1NC(=O)CC2C(=O)NCCN12 (stereo not given)	0.5	-1.03
CCCc1[nH]n(-c2ccc(F)cc2)c(=O)c1C(C)=Nc1ccc(S(N)(=O)=O)cc1	0.7	-0.631
O=C(Nc1ccc(-c2nc3ccccc3o2)cc1)c1ccc(Oc2ccccc2)cc1	1.0	.
CNS(=O)(=O)c1ccc2c(c1)n(C)c(=O)n2C	0.9	-1.01
Cc1ccc(NC(=O)/C=C2\NC(=O)CS2)cc1	-1.6	.
Cc1cc(C)c(C)c(S(=O)(=O)N2CCN(c3ncnc4sc5c(c34)CCCC5)CC2)c1C	1.7	.
CC(C)OCc1nc2ccccc2n1C	0.2	0.643

(next part)
smiles	BasE inh	KSHV LANA nucl
Cc1c(C#N)sc2ccccc12	-1.7	0.132
Cn1nc(C2CC2)cc1NC(=O)Nc1ccc(OC(F)(F)F)cc1	1.1	0.378
COC(=O)C1=C(N)Oc2c(oc(CO)cc2=O)C1c1cccc(OC)c1 (stereo not given)	1.1	-0.317
Cc1cc(C)n2c(SC(C)C(=O)NC3(C#N)CCCCC3)nnc2n1 (stereo not given)	-0.8	.
COC(=O)C(C)Sc1nc2cc(Cl)ccc2s1 (stereo not given)	0.4	.
CC1CC(C)CN(S(=O)(=O)c2ccc(NC(=O)C(C)N3C(=O)C4CC=CCC4C3=O)cc2)C1 (stereo not given)	0.5	.
COCC(C)NC(=O)C1=CC(c2ccc(C)cc2)=NS(=O)(=O)N1C (stereo not given)	-1.1	-0.22
Nc1nc2sc3c(c2c(=O)s1)CCCC3	3.1	0.156

Next results
smiles	BasE inh	KSHV LANA nucl
COC(=O)CC(C(=O)Nc1ccc(C)cc1Br)N1CCN(C)CC1 (stereo not given)	-0.1	-0.41
Cc1cc(C(=O)CSc2nc3ccccc3c(=O)n2CCO)c(C)n1C(C)C	-0.5	.
CC(C)(C)c1ccn[nH]1	.	0.372
COC(=O)c1ccc2nsnc2c1	0.7	.
O=C(CCCc1ccccc1)N1CCCCCCC1	2.2	0.314
CC(C)c1cc(=O)[nH]c(SCC(=O)O)n1	0.7	-0.675
CC(C)N(C(=O)CSc1nnnn1Cc1ccccc1)C(C)C	2.3	-0.485
Cc1ccccc1NC(=O)CN1CCCC1	0.8	0.127

(cont.)
smiles	BasE inh	KSHV LANA nucl
CC1CN(c2nc(-c3cccs3)cc(C(F)(F)F)c2C#N)CC(C)O1 (stereo not given)	.	-0.78
C/C(=C\c1ccccc1)C(=O)NCCCn1ccnc1	1.8	-0.029
CN1C(=S)SC(c2ccccc2)N(C)C1c1ccccc1 (stereo not given)	-0.7	.
Cc1nc2ccccc2c(=O)n1-c1cccc(NC(=O)c2ccc3c(c2)OCO3)c1	-1.4	0.066
O=C1c2ccccc2-c2onc3ccc(Oc4c(F)c(F)c(F)c(F)c4F)c1c23	2.3	-0.621
CC1=CC(C)=NC2Nc3c(C)cc(C)cc3C(=N)C12 (stereo not given)	5.1	-2.24*
COC(C(=O)Nc1ccc2c(c1)OCCO2)c1ccccc1 (stereo not given)	-3.5	0.163
COC(=O)CSc1nnc2c(n1)[nH]c1ccccc12	-0.8	.

Further structures:
smiles	BasE inh	KSHV LANA nucl
CS(=O)(=O)N1CCN(C(=O)CCCC(=O)O)CC1	2.5	-1.04
CC(C)C(NC(=O)c1ccc2c(=O)n3c(nc2c1)CCC3)c1ccc2c(c1)OCCCO2 (stereo not given)	0.9	.
Cn1c(-c2cccnc2)n[nH]c1=S	2.1	-1.03
O=C(CN1CCCCC1)Nc1ccccc1	-0.3	-1.15
CCOC(=O)c1sc(NC(=O)CC)c(C#N)c1C	-0.3	0.4
CN(C)c1ccc(C2N(C(=O)C(F)(F)F)CCN2S(=O)(=O)c2ccccc2)cc1 (stereo not given)	0.3	-0.941
O=c1[nH]nc(C(F)(F)F)c2nnn(Cc3ccccc3Cl)c12	0.3	-0.027
CC(C)(C)n1nc(-c2ccc(Cl)cc2)c2c(N)ncnc21	0.5	-0.438

The last seven compounds of the part above are carried over, then new ones follow.
smiles	BasE inh	KSHV LANA nucl
CC(C)C(NC(=O)c1ccc2c(=O)n3c(nc2c1)CCC3)c1ccc2c(c1)OCCCO2 (stereo not given)	0.9	.
Cn1c(-c2cccnc2)n[nH]c1=S	2.1	-1.03
O=C(CN1CCCCC1)Nc1ccccc1	-0.3	-1.15
CCOC(=O)c1sc(NC(=O)CC)c(C#N)c1C	-0.3	0.4
CN(C)c1ccc(C2N(C(=O)C(F)(F)F)CCN2S(=O)(=O)c2ccccc2)cc1 (stereo not given)	0.3	-0.941
O=c1[nH]nc(C(F)(F)F)c2nnn(Cc3ccccc3Cl)c12	0.3	-0.027
CC(C)(C)n1nc(-c2ccc(Cl)cc2)c2c(N)ncnc21	0.5	-0.438
CCCn1c(=O)n(-c2ccccc2)c(=O)c2c3c(sc21)CN(C(C)=O)CC3	0.7	-0.818
Cc1[nH]c2ccc(C(=O)OCC#N)cc2c1C	-0.6	.
C/C(O)=C(\C#N)P(C)(=O)OC(C)C (stereo not given)	0.1	1.71
Cc1noc(C)c1CSc1ncccc1C(=O)N(C)Cc1c(F)cccc1Cl	-0.8	.
CC1Cc2ccccc2N1S(=O)(=O)c1cccc(C(=O)N2CC(=O)Nc3ccccc32)c1 (stereo not given)	-0.4	.
CN(C(=O)CSc1nc2ncccc2o1)c1ccccc1	-0.9	1.04
O=C(NC1CC(=O)N(c2ccc3c(c2)OCCO3)C1)c1ccc2ccccc2c1 (stereo not given)	2.9	0.574
CSc1nc2ccc(NC(=O)CNC(=O)c3cccs3)cc2s1	1.2	.
CCOc1cc(C2C(C(=O)N3CCOCC3)=C(C)NC3=C2C(=O)CC(C)(C)C3)cc(Br)c1OCC (stereo not given)	0.3	-1.19
O=C(O)c1cccc(-n2ncc(Cl)c(Cl)c2=O)c1	0.7	0.513
